KCNQ2 enhance: enhances the rat KCNQ2 potassium channel; AID 2239; CHO-K1 KCNQ2, FluxOR thallium flux fluorescence; hits give high values; B-score at 10 µM; 0.54% of 310,000 active; O88943;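 active = fluorescence ratio B-score at least 3 SD of library B-scores, with initial fluorescence B-score within 3 SD, cut at about 5.3 in these data; same plate scores as AID 2156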;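 also: B-score of peak minus minimum over baseline fluorescence ratio after K+ and Tl+ stimulus; positive B-score means potentiation of KCNQ2 with more thallium influx and brighter signal; only the inactives scoring about 0 or higher are listed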
Target sequence (O88943 whole entry, looked up): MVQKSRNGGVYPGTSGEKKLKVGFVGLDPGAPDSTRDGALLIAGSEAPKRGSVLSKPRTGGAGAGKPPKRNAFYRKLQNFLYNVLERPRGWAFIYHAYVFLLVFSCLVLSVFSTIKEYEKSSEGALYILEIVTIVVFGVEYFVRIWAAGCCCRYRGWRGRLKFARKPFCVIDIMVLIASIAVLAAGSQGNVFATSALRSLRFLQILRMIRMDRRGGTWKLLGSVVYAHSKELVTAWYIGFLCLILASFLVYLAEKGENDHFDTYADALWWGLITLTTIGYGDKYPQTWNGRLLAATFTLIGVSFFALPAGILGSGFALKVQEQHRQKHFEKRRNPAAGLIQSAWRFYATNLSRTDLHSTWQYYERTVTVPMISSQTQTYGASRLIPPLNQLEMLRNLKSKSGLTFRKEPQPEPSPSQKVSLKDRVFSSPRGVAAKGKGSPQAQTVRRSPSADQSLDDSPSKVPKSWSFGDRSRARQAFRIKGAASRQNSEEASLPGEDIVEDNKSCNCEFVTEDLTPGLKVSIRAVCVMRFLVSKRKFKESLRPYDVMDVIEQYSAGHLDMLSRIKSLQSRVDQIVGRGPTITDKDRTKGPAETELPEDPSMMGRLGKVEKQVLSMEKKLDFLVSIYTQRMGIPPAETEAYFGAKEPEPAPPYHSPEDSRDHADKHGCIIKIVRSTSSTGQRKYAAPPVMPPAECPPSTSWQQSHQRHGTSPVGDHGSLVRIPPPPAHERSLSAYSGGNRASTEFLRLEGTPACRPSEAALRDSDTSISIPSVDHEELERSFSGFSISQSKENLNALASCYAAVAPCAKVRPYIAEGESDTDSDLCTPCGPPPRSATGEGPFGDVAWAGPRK
KCNQ2 enhance baseline: further read-out of KCNQ2 enhance, marked with its call; B-score; compound at 10 µM; measured here: initial fluorescence intensity artifact check;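 brightness before thallium and not channel activity; 0 = typical well and far values either way flag optical interference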
Active calls of the source: *; & = joins results of further samples. Only part of the results is shown. The share of hits here may be higher or lower than overall.

Under each structure – KCNQ2 enhance	KCNQ2 enhance baseline
> CC1CC(C)(C)NC(=S)N1CC(=O)NCc1ccccc1Cl (stereo unspecified)
  0.19	3.2
> COc1ccccc1C1C2=C(CC(C)(C)CC2=O)Nc2nnnn21 (stereo unspecified)
  0.59	-2.17
> CC(C)Oc1ccc(Cn2c(-c3ccco3)n[nH]c2=S)cc1
  0.77	-0.86
> COc1ccc(OCc2nnc(SCC(=O)NNC(=O)c3ccc(C)cc3)n2C)cc1
  0.02	0.22
> CN(C)S(=O)(=O)c1ccc(N2CCCC2)c(C(=O)NC2CCCCC2)c1
  0.51	1.01
> N#Cc1ccc(C23CC4(C2)[C@H](CN(Cc2cccnc2)[C@@H]4c2ccccc2)C3c2ccccc2)cc1 (stereo partly specified)
  0.24	1.19
> CSc1nnc(NC(=O)c2cc(=O)c3cc(C)cc(C)c3o2)s1
  0.34	1.81
> CC(=O)OC(C(=O)N1CCN(c2ccc(F)cc2)CC1)c1ccccc1 (stereo unspecified)
  0.69	-2.95
> CN1/C(=C/C=N/n2cnnc2)C(C)(C)c2ccccc21
  1.49	-1.28
> NCCCC[C@@H]1NC(=O)c2cc([N+](=O)[O-])cc(I)c2SC[C@@H](C(=O)NCC(N)=O)NC(=O)CNC1=O
  1.75	-1.31
> COc1ccc2c(c1)CC(C)C/C2=N\NC(=O)c1ccco1 (stereo unspecified)
  1.54	2.13
> CCOC(=O)C1=C(Cn2cnc3ccccc32)NC(=O)NC1c1cc(C)ccc1C (stereo unspecified)
  6.61*	1.37*
> CCSc1nc2c(c(=O)n(C)c(=O)n2C)n1Cc1ccc(Cl)cc1
  0.13	-0.4
> CCOC(=O)N1CCN(C(=O)/C(=C/c2cccs2)NC(=O)c2ccc(OC)c(OC)c2)CC1
  1.21	0.32
> CC(=O)N1c2ccc(S(=O)(=O)NCCC(=O)NCCc3ccc(C)cc3)cc2CC1C (stereo unspecified)
  0.77	-0.26
> CCOC(=O)c1ccc(NC(=O)Cc2cccs2)cc1
  0.96	-2.86
> Cc1oc2cc([N+](=O)[O-])c(O)c([N+](=O)[O-])c2c1C(=O)c1ccc(Br)cc1
  6.95*	-1.97*
> COc1cc(NC(=O)c2ccc(Cl)cc2)c(OC)cc1NC(=O)CN1CCOCC1
  0.48	0.59
> N#Cc1ccc(CSc2nnc(-c3cccc(S(=O)(=O)N4CCCCC4)c3)o2)cc1
  0.4	2.81
> CC(C)(C)c1ccc(C(=O)N/C(=C\c2ccco2)C(=O)O)cc1
  0.25	-1.04
> CCN(CC)c1ccc(NC(=O)CCCCC(=O)Nc2ccc(N(CC)CC)cc2)cc1
  1.69	0.06
> CN(C)S(=O)(=O)c1ccc(N2CCCC2)c(C(=O)NCc2cccc(C(F)(F)F)c2)c1
  0.41	0.44
> O=C(C1CCCCC1)N1CCN(c2nc(-c3ccc(F)cc3)cs2)CC1
  1.09	1.41
> Cn1nccc1C(=O)NC(=S)Nc1cc(Cl)cc(Cl)c1
  1.81	-0.5
> Cc1cc(O)c(-c2cc(C(=O)NCCc3ccc(S(N)(=O)=O)cc3)[nH]n2)cc1C
  1.27	-1.4
> O=C1c2cc(N3CCCC3)c([N+](=O)[O-])cc2C(=O)N1c1ccccc1
  0.62	-0.35
> CC1(C)CC2CC(C)(CN2S(=O)(=O)c2ccc(C(=O)Nc3cccc(S(=O)(=O)N4CCOCC4)c3)cc2)C1 (stereo unspecified)
  2.78	0
> CC(=O)Nc1ccc(C(=S)NCCCO)cc1
  0.01	0.37
> COCCN(CCOC)S(=O)(=O)c1ccc(C(=O)Nc2nc(C)c(C(C)=O)s2)cc1
  0.55	-1.86
> COc1ccc(N2CCN(C(=O)c3cccnc3SCc3cccc(Br)c3)CC2)cc1
  1.41	0.93
> Cc1ccc(NC(=O)CSc2nc(N)c3cc4c(nc3n2)CCCC4)cc1
  0.74	0.84
> COc1ccc(/C=C/C(=O)Oc2cccc(/C=N/NC(=O)COc3c(C)cccc3C)c2)cc1
  0.5	-0.29
> BrC(=C\c1ccccc1)/C=N/Nc1nc(N2CCOCC2)nc(N2CCOCC2)n1
  0.25	0.33
> Cn1nccc1CNC(=O)c1ccnn1C
  1.39	1.42
> O=C(CCn1cncn1)N1CCCC(N2CCN(c3ccc(F)cc3)CC2)C1 (stereo unspecified)
  0.43	-0.36
> Cc1nn(-c2ccccc2)c(C)c1C(=O)OCC(=O)N(C)c1c(N)n(Cc2ccccc2)c(=O)[nH]c1=O
  0.87	1.47
> Cc1onc(-c2c(Cl)cccc2Cl)c1C(O)c1ccccc1 (stereo unspecified)
  0.61	-0.07
> Cc1ccc(C(=O)Nc2cccc3ccccc23)cc1
  0.99	0.59
> Cc1cc(C)c(NC(=O)COC(=O)/C=C/c2cccc(C(F)(F)F)c2)c(C)c1
  0.01	-0.01
> CCCCNc1nc2c(-c3ccccc3)nnn2c2ccccc12
  0.62	0.84

A few values from above:
KCNQ2 enhance, CCCCNc1nc2c(-c3ccccc3)nnn2c2ccccc12 = 0.62
KCNQ2 enhance, Cc1ccc(NC(=O)CSc2nc(N)c3cc4c(nc3n2)CCCC4)cc1 = 0.74
KCNQ2 enhance, Cn1nccc1CNC(=O)c1ccnn1C = 1.39
KCNQ2 enhance baseline, Cc1nn(-c2ccccc2)c(C)c1C(=O)OCC(=O)N(C)c1c(N)n(Cc2ccccc2)c(=O)[nH]c1=O = 1.47
KCNQ2 enhance baseline, Cc1onc(-c2c(Cl)cccc2Cl)c1C(O)c1ccccc1 (stereo unspecified) = -0.07
KCNQ2 enhance, Cc1cc(C)c(NC(=O)COC(=O)/C=C/c2cccc(C(F)(F)F)c2)c(C)c1 = 0.01
KCNQ2 enhance, COc1ccc(/C=C/C(=O)Oc2cccc(/C=N/NC(=O)COc3c(C)cccc3C)c2)cc1 = 0.5

Record cards, from the list above.
COc1ccc(/C=C/C(=O)Oc2cccc(/C=N/NC(=O)COc3c(C)cccc3C)c2)cc1 in the list: KCNQ2 enhance: 0.5; KCNQ2 enhance baseline: -0.29
Cc1ccc(NC(=O)CSc2nc(N)c3cc4c(nc3n2)CCCC4)cc1 in the list: KCNQ2 enhance: 0.74; KCNQ2 enhance baseline: 0.84

Next section
Under each structure – KCNQ2 enhance	KCNQ2 enhance baseline
> CCCn1c(SCC(=O)Nc2nnc(CC)s2)nnc1-c1ccco1
  0.6	0.61
> COc1ccc(CCN(Cc2cccs2)S(=O)(=O)c2ccc(C(=O)O)cc2)cc1OC
  1.04	-0.96
> COc1ccc(Cn2nnnc2CN2CCC(c3nc4ccccc4s3)CC2)cc1
  0.31	1.26
> CCOC(=O)NCC(C)(C)CNC(=O)OCC
  0.02	0.28
> CCn1cc(C(=O)NCc2ccco2)c(=O)c2ccc(C)nc21
  2.05	0.83
> O=C(O)c1cc(-c2cccc([N+](=O)[O-])c2)n[nH]1
  1.73	-0.57
> N/C(=N\OC(=O)/C=C/c1ccccc1)c1ccccn1
  0.18	-0.06
> CC1CCCC(NC(=S)NC(=O)c2ccccc2Br)C1C (stereo unspecified)
  0.1	-0.11
> COc1cc(CN2CCCCCC2)cc(OC)c1O
  0.1	0.64
> O=C(c1cc(Br)ccc1Cl)N1CCN(c2ccccn2)CC1
  0.59	0.06
> C/C(=N\NC(=O)c1c[nH]c2ccccc12)c1ccc(C)s1
  0.14	-2.32
> COc1ccc(N2CCN(S(C)(=O)=O)CC2)cc1
  1.03	-2.36
> COc1ccc(N2CCN(c3ccc(NC(=O)/C=C\C(=O)O)cc3)CC2)cc1
  1	0.2
> CCn1c(CCn2ccnc2C)n[nH]c1=S
  0.04	-1.35
> CC(=O)NCC(=O)OCN1C(=O)c2ccccc2C1=O
  1.14	-1.14
> CCCNc1nc(Cl)nc(NC(C)(C)C)n1
  0.09	1.48
> Cc1cc(=O)oc2cc(NC(=O)c3cc4ccccc4o3)ccc12
  0.25	-0.01
> Cc1cc(C)nc(N(C#N)Cc2cccc(Cl)c2)n1
  0.09	-1.17
> COc1cc(/C=C2/NC(=O)NC2=O)cc(Br)c1OCc1ccccc1
  0.97	3.26
> COc1ccc(S(=O)(=O)N(C)CC(=O)NCc2ccc3c(c2)OCO3)cc1
  0.02	1.31
> COC(=O)C1=C(N)Oc2cc(C)n(Cc3cccnc3)c(=O)c2C1c1cc(OC)ccc1OC (stereo unspecified)
  0.39	-1.06
> CCN(CC)C(=O)CSc1nnc(CSc2ncccn2)n1C
  0.8	0.8
> O=S1(=O)CCC(NS(=O)(=O)c2cccc3cccnc23)C1 (stereo unspecified)
  0.77	-0.16
> COCCCNC(=O)[C@H](Cc1c[nH]c2ccccc12)NC(=O)OCc1ccccc1
  1.53	-0.36
> COc1cc(NC(=O)c2cccc(C)c2)ccc1NC(=O)c1cc2ccccc2o1
  1.45	0.13
> O=C(O)CSc1nnc(COc2ccc([N+](=O)[O-])cc2)n1-c1ccccc1
  0.01	0.01
> CCn1c(SCC(=O)NC(=O)NC(C)(C)C)nc2ccccc21
  2.06	-1.15
> COc1ccc(/C(N)=N/OC(=O)Cc2ccccc2[N+](=O)[O-])cc1
  1.2	-1.32
> O=C(Oc1ccc2c3c(c(=O)oc2c1)CCC3)c1ccco1
  2.08	0.86
> CSc1ccc(S(=O)(=O)NCC(=O)OCC(=O)N(Cc2ccccc2)C(C)C)cc1[N+](=O)[O-]
  0.03	-2.44
> Cc1cc(C(F)F)n2ncc(C(=O)O)c2n1
  0.86	-0.31
> Cc1cc(OCCCN2CCCC2)ccc1Cl
  0.48	0.02
> CC(C)C(=O)Nc1cccc(NC(=O)c2cccc(Br)c2)c1
  1.03	-2.12
> Cc1nn(Cc2ccc(F)cc2)c(Cl)c1/C=N/NC(=O)c1cccnc1
  0.88	-0.52
> CCOc1ccccc1NC(=O)COC(=O)c1cc(C(=O)OC)cc([N+](=O)[O-])c1
  0.14	0.22
> Cc1snc(S(=O)(=O)/C(C#N)=N/Nc2cccc(C(F)(F)F)c2)c1C#N
  0.01	-0.69
> COc1cc(NC(=O)Cc2ccccc2)ccc1NC(=O)c1ccco1
  0.01	0.47
> Cc1ccsc1C(=O)OCC(=O)NC1CCS(=O)(=O)C1 (stereo unspecified)
  1.31	-1.19
> COc1ccc(-c2noc3c2-c2nc(-c4ccccc4Cl)sc2CC3)cc1
  0.06	0.01
> Cc1cccn2c(=O)c3cc(C(=O)NC4CCCCC4)c(=N)n(CCN4CCOCC4)c3nc12
  0.97	0.13
> O=C(CSc1nnc(-c2ccncc2)o1)c1ccc2c(c1)OCCO2
  0.56	-0.26
> Cc1cc(=O)n2[nH]c(-c3cccnc3)nc2n1
  0.61	1.84
> O=C(NCCOC(=O)c1ccc([N+](=O)[O-])cc1)c1cccnc1
  0.67	0
> O=C(CCN1C(=O)c2ccccc2S1(=O)=O)Nc1ccc(F)c(F)c1F
  1.54	0.94
> CCCCNC(=S)Nc1ccc(C(F)(F)F)cc1
  1.3	-1.69
> CC(=O)c1nnn(-c2nc(N)nc(N(c3ccccc3)c3ccccc3)n2)c1C
  0.29	1.04
> CCOCCCNC(=O)c1ccc(NC(=O)C2=CSCCO2)cc1
  0.91	3.03
> Cc1ccc(C(c2sc3nc(C)nn3c2O)N2CC(C)OC(C)C2)cc1 (stereo unspecified)
  0.37	-0.51
> CCOC(=O)c1c(C)[nH]c(C(=O)OCc2c(C)noc2C)c1C
  2.51	-0.18
> CCN(CC)C(=O)C(C)N(C#N)c1nc(Cl)nc(N(C)C)n1 (stereo unspecified)
  1.89	0.17

(more compounds)
Under each structure – KCNQ2 enhance	KCNQ2 enhance baseline
> COc1cccc(CNC(=O)C(C(=O)NCc2cccc(OC)c2)c2ncc(C(F)(F)F)cc2Cl)c1
  0.23	-0.19
> Cc1ccc(OCCOC(=O)CN2C(=O)NC3(CCCC3)C2=O)cc1
  0.2	-2.06
> C=CCOc1ccc(/C=N/N2C(=O)C(CC(=O)Nc3ccc(F)cc3F)SC2=NC)cc1 (stereo unspecified)
  0.56	0.92
> COc1ccc(C2CC(C(F)(F)F)n3nc(C(=O)O)cc3N2)cc1 (stereo unspecified)
  0.64	-2.44
> COc1ccc(NC(=S)NCCCN2CCCC2)cc1Cl
  0.04	-1.01
> CC(CCc1ccco1)N(C)S(=O)(=O)c1csc(C(N)=O)c1 (stereo unspecified)
  0.17	-0.5
> COC(=O)c1cc(Cl)c(NC(=O)/C=C/c2ccc(OC)cc2)cc1OC
  0.8	-0.24
> CCC(=O)Nc1ccc2c(c1)nc(CCN1CCC(C)CC1)n2C
  1.87	-0.45
> Cc1ccccc1S(=O)Cc1ccc(C(=O)NC2CCN(Cc3ccccc3)CC2)o1 (stereo unspecified)
  0.43	-0.26
> Cc1cccc(-c2noc(CCCC(=O)Nc3ccc(C(N)=O)cc3)n2)c1
  0.9	1.1
> CCn1cc(C(=O)O)c(=O)c2cc(F)c(N3CCN(C(=S)NC(=O)c4c(OC)cccc4OC)CC3)cc21
  0.69	-0.46
> O=C(/C=C/c1ccc2c(c1)OCO2)Nc1c(C(=O)O)[nH]c2ccccc12
  0.5	-0.07
> O=C(/C=C/N1CCOCC1)c1cc2ccccc2o1
  1.37	-0.75
> CN(C(=O)Cn1nnc2ccccc2c1=O)C1CCCCC1
  0.1	0
> COCCn1c(SCC(=O)NC2CCCC2)nnc1-c1ccco1
  0.34	-0.03
> COc1ccc(/C=N/NC(=O)c2nn(-c3ccccc3)c(=O)c3c(N)scc23)cc1
  0.28	-1.03
> COc1cccc(N/N=C(\C#N)S(=O)(=O)C(C)(C)C)c1
  0.11	-0.26
> COc1ccc(CNC(=O)CCCc2ccccc2)cc1
  1.06	0.91
> CCOC(=O)c1c(C)n(C)c2cc(-c3cccc(C(F)(F)F)c3)c(O)cc12
  1.85	0.06
> O=C(NC1CCC(C(=O)O)CC1)OCc1ccccc1 (stereo unspecified)
  0.05&0.75	-0.09&1.22
> CCOc1ccc(S(=O)(=O)NCCCN2CCCC2=O)cc1
  0.23	-2
> COc1ccc(C(=O)NCCc2ccccc2)cc1OC
  0.88	2.03
> CCn1ccc(C(=O)NCCCN2CCCC2=O)n1
  1.11	1.64
> CS(=O)(=O)N1N=C(c2cccs2)CC1c1ccccc1F (stereo unspecified)
  1.23	-0.16
> O=C(Nc1cccc(S(=O)(=O)N2CCCCC2)c1)C1CCC1
  0.11	-0.59
